Source: PubChem BioAssay (National Center for Advancing Translational Sciences (NCATS))
Vaccinia mCherry: vaccinia inhibition (mCherry reporter); Vaccinia virus mCherry reporter infection, fluorescence; about a quarter of the inactives have no number; Potency, µM (series often up to 36.5 µM), for the others: top-dose activity change, negative = inhibition, actives largely listed as inhibitors; 310,000 tested, 0.63% active; active = well fitted inhibition curve with a large enough effect; inconclusive = small, poorly fitted or top-dose-only effect; inactive = no such curve, though single readings can be large or run the other way; tested in A549 cells; note: nearly all actives have a fitted effect of over 35% in size; inactives centre near -10
Vaccinia Venus: inhibitors of vaccinia virus (Venus reporter). 330,000 tested, 0.46% active. Potency, µM (top dose mostly 36.5 µM), for inactives: top-dose activity change, negative = inhibition, hits mostly inhibitors. Vaccinia virus Venus reporter expression, fluorescence; active means well fitted inhibition curve with a large enough effect; inconclusive means small, poorly fitted or top-dose-only effect; inactive means no such curve, though single readings can be large or run the other way; tested in A549 cells; note: nearly all actives have a fitted effect of over 30% in size; inactives centre near -10
* hit, by the source's call; i = inactive; ? = inconclusive; . = not tested or not shown; & = joins results of further samples; [ ] = dose if it differs, or a comment. % is set by controls: 0 for no effect and ±100 for the full control effect; potency is the fitted concentration of half-maximal effect.

Each structure is followed by: Vaccinia mCherry, Vaccinia Venus
- CSCC(=O)Nc1ccc(F)c(Cl)c1
→ i, -12%
- COc1cccc2c(SCC(=O)N/N=C/c3ccc(O)cc3O)cc(C)nc12
→ -18%, -3%
- O=C(CSCC(=O)OCn1nnc2ccccc2c1=O)Nc1ccc(Cl)cc1
→ 0%, -6%
- Cc1cccc(C(=O)Oc2ccccc2-c2nnco2)c1
→ ., -10%
- CCOC(=O)c1c(NC(=O)CN2C(=O)NC(C)(c3ccc(Cl)cc3)C2=O)sc(C(=O)NC)c1C (stereo not given)
→ -2%, ?
- Cc1sc2ncnc(N3CCC(C(=O)NNC(=O)COc4cccc(C(F)(F)F)c4)CC3)c2c1C
→ i, -15%
- Cc1ccc(S(=O)(=O)N2CCCC2CNC(=O)C(=O)Nc2ccc(F)cc2F)cc1 (stereo not given)
→ -15%, -25%
- CCN(C(=O)COC(=O)c1ccc(=O)n(Cc2ccccc2)n1)C1CCS(=O)(=O)C1 (stereo not given)
→ i, -9%
- CC(C)(C)c1cc[n+](CC(=O)Nc2cc(C(F)(F)F)ccc2N2CCOCC2)cc1
→ -3%, 1%
- COC(=O)c1ccc(C2NC(=O)NC(C)=C2C(=O)N(C)C)cc1 (stereo not given)
→ ., -14%
- Oc1ccc(C[C@H]2CNCCN2CC2CCCCC2)cc1
→ -18%, -14%
- Cc1cc(Nc2ccc(C)c(C)c2)n2ncnc2n1
→ ?, -21%
- N#Cc1ccccc1NC(=O)c1ccc2c(c1)OCO2
→ i, -9%
- Cc1cnc(C(=O)OCC(=O)Nc2cccc(Cl)c2)cn1
→ i, -3%
- CCCCOc1ccc(OC(=O)c2sc3ncn(Cc4cccc(F)c4)c(=O)c3c2C)cc1
→ -12%, -15%

(list continues)
Each structure is followed by: Vaccinia mCherry, Vaccinia Venus
- c1ccc(C2(CN3CCNC[C@H]3Cc3cccc4ccccc34)CC2)cc1
→ ?, ?
- COc1ccccc1NC(=S)NCc1cccnc1
→ -11%, -5%
- COc1cccc(NC(=O)C2CCCN(S(=O)(=O)c3cccc4nonc34)C2)c1 (stereo not given)
→ -9%, -17%&1%
- CC(C)(C)c1cccc(C2(O)C(=O)c3ccccc3C2=O)c1O
→ -20%, -15%
- CC(=O)Nc1ccc(NC(=O)C(C)Sc2nc3nc(C)cc(C)n3n2)cc1 (stereo not given)
→ i, -6%
- CC(=O)N1C[C@H]2CON(C)[C@H]2C[C@H]1c1ccc(-c2ccc(C#N)cc2)cc1
→ -2%, 0%
- C[C@]12CCC3C(CC[C@H]4C[C@H](O)CC[C@]34C)C1CC(=O)[C@@H]2O (stereo not given in full)
→ -6%, 2%
- O=C(CN(Cc1ccccc1Cl)C(=O)c1csnn1)NCc1ccc(F)cc1
→ -7%, -10%
- O=C1NCN(c2ccccc2)C12CCN(C(c1cccs1)c1nnnn1C1CCCC1)CC2 (stereo not given)
→ 10%, 6%
- C=C(CO)C1Cc2cc(C(C)=O)ccc2O1 (stereo not given)
→ i, 0%
- O=C(COc1cccnc1[N+](=O)[O-])N1CCc2ccccc2C1
→ -7%, -21%
- CCc1ccc(NC(=O)CN2C(=O)c3ccccc3Sc3ccc(C(=O)N4CCCC4)cc32)cc1
→ ?, -29%
- COc1ccc(C(=O)N/C(=C\c2ccco2)C(=O)NCCCn2ccnc2)cc1
→ -6%, 11%
- Cc1[nH][nH]c(=O)c1C(c1ccc(-c2ccc(C(=O)O)cc2)o1)c1c(C)[nH][nH]c1=O
→ i, 0%
- CCOc1ccc(/C=C/c2nc(C#N)c(N3CCC(C)CC3)o2)cc1
→ ?, -25%

Further entries follow.
Each structure is followed by: Vaccinia mCherry, Vaccinia Venus
- CN1C2CCC1CC(OC(c1ccccc1)c1ccccc1N)C2 (stereo not given)
→ -5%, -4%&-17%&-2%
- c1ccc2c(c1)ccc1[nH]c3c(c12)CCCC3
→ ?, 6%
- CC(C)NC(=O)c1n[nH]c(=O)c2ccccc12
→ -5%, -2%
- c1ccc(N2CCN(Cc3cnc(N4CCOCC4)s3)CC2)cc1
→ ?, -12%
- CC(=O)c1ccc(N2CCN(C(=S)Nc3ccccc3C(F)(F)F)CC2)cc1
→ ?, ?
- O=C(CSc1nc2c(cnn2-c2ccccc2)c(=O)[nH]1)N1CCOCC1
→ -15%, -11%
- O=C(/C=C/c1cccc(Cl)c1)Nc1ncccn1
→ -9%, 8%
- COc1ccccc1CCNC(=O)C(=O)NCC(c1cccs1)S(=O)(=O)c1cccs1 (stereo not given)
→ -23%, -17%
- CN(C)CCCn1c(SCC(=O)N2c3ccccc3Sc3ccccc32)nc2ccccc2c1=O
→ ?, 14µM*
- COC(=O)c1cc(C(=O)OC)cc(N2C(=O)CC(Sc3nc(C)cc(C)n3)C2=O)c1 (stereo not given)
→ ., -4%
- COc1ccc2sc(-c3ccc(SC)cc3)c(/C=C/c3ccc(OC)c(OC)c3)c2c1
→ -12%, -11%
- CCNc1nc(NCC)nc(N/N=C(\C)c2ccc(OC)cc2)n1
→ i, ?
- Cc1ccc(CNS(=O)(=O)c2cc3c(cc2C)N(C)CCO3)cc1
→ ?, -10%&-16%
- C[C@@H]1CN([C@@H](C)CO)C(=O)c2cc(C#Cc3ccccc3)cnc2O[C@@H]1CN(C)Cc1ccccn1
→ -6%, -29%
- Cc1ccc(CCN2C(=O)CCC2(C)C(=O)NC2CCCC2)cc1 (stereo not given)
→ 3%, -16%

More entries.
Each structure is followed by: Vaccinia mCherry, Vaccinia Venus
- Cc1c(Cl)cccc1NC(=O)CCCCCN1C(=O)CCC1=O
→ ., -18%
- CCN(CC)c1ccc(NS(=O)(=O)c2ccc3c(c2)oc(=O)n3C)c(C)c1
→ ?, -12%
- Fc1ccc(Nc2nc3ccccc3s2)cc1
→ -6%, -10%
- CCOP(=S)(OCC)Oc1nc(Cl)c(Cl)cc1Cl
→ -14%, -13%&-10%
- N#Cc1c(-c2ccc(Cl)cc2)ccn2nc(C3CCCCC3)nc12
→ -7%, ?
- Cc1cc(CN(C)C(=O)c2ccc3nc(Cc4ccccc4F)oc3c2)n[nH]1
→ -17%, 2%
- CN(C)c1ccc(C=C2C(=O)NC(=O)NC2=O)cc1[N+](=O)[O-]
→ 3%, -2%
- CCS(=O)(=O)N1Cc2ccccc2CC1C(=O)Nc1nc2ccccc2s1 (stereo not given)
→ -8%, -7%
- CCCCC/C=C\C\C=C/C=C/C=C/[C@@H](SC[C@H](N)C(=O)NCC(=O)O)[C@@H](O)CCCC(=O)O
→ -9%[0.293 µM], -8%[0.293 µM]
- CCOc1ccccc1C1NC(c2ccc3c(c2)OCO3)=CC(c2ccccc2O)N1 (stereo not given)
→ -13%, -4%
- Oc1ccc(Br)cc1/C=N/Nc1ccccn1
→ ?, ?
- COc1ccccc1CN(C)CC(=O)Nc1cccc(S(=O)(=O)N2CCCC2)c1
→ -28%, -17%
- Cc1cc(NC(=O)CSc2ncnc3sccc23)no1
→ i, -17%
- CCOc1cccc2sc(NC(=O)CCS(=O)(=O)c3ccccc3)nc12
→ ?, -28%
- COc1cc(OC)cc(C(=O)NNC(=O)Cc2ccc(OC)c(S(=O)(=O)N3CCOCC3)c2)c1
→ -13%, -3%

Continuation.
Each structure is followed by: Vaccinia mCherry, Vaccinia Venus
- CCCCOCCCNC(=O)Cc1ccccc1OC
→ -6%, -2%
- O=C(c1ccc(O)c(Br)c1)c1cc(Br)ccc1O
→ ?, -15%
- Clc1ccc(-c2cc(COc3ccc4ccccc4c3)no2)cc1
→ i, 3%
- O=C(c1ccc(N2CCCS2(=O)=O)cc1)N1CCN(c2ccccc2)CC1
→ ?, -7%
- CSCC[C@H](NC(=O)OC(C)(C)C)C(=O)N/N=C/c1cccc2cccnc12
→ ?, -6%
- CC(NC(=O)c1cnc2ccccc2n1)c1ccccc1 (stereo not given)
→ -5%, 4%
- CCCc1cc(=O)oc2cc(OCc3cc(OC)c(OC)c(OC)c3)c(Cl)cc12
→ -10%, 4%
- COc1cc(C(=O)NCC(c2ccc(N(C)C)cc2)N2CCc3ccccc32)cc(OC)c1OC (stereo not given)
→ -4%, -5%
- C/C=C/c1ccc(OCC(=O)Nc2cc(Cl)ccc2-n2cncn2)c(OC)c1
→ -22%, -10%
- CCn1c(CCNC(=O)c2ccc(OC)cc2)nnc1SCC(=O)Nc1ccccc1F
→ -10%, 5%
- CC[C@]12c3[nH]c4ccc(Cl)cc4c3CCN1C(=O)[C@@H](CC(=O)NCCCN(C)C)C[C@@H]2C(=O)N1CCN(C(=O)C2CC2)CC1
→ i, 6%
- CC1CCCCC1NC(=O)NC(=O)COC(=O)c1nccnc1N (stereo not given)
→ -13%, -2%
- NC(Cc1ccc(Cl)cc1)c1csc(Nc2ncccn2)n1 (stereo not given)
→ 10µM*, 7.9µM*
- O=C(N/C(=C\c1cccnc1)c1nc2ccccc2[nH]1)c1cccc(Br)c1
→ -24%, -20%
- CNC(=S)N/N=C/c1c(C)cccc1Cl
→ -8%, -19%

More compounds follow:
canonical_smiles	Vaccinia mCherry	Vaccinia Venus
CCOC(=O)N1CCN(C(=O)C[C@@H]2C[C@@]3(C(=O)OC)CCCCC=C3N(Cc3ccc4c(c3)OCO4)C2=O)CC1	-8%	0%
O=C(Cn1nc(-c2ccc(Cl)cc2)ccc1=O)NCCc1ccccc1	i	-2%
CCOC(=O)C1(C)Oc2ccc(S(=O)(=O)CC)cc2NC1=O (stereo not given)	-3%	-1%
Cc1noc(C)c1-c1ccc(C(=O)NCC(C)C)c2occc12	6%	-14%
O=S1(=O)CC(N2CCN(Cc3ccccc3F)CC2)CN1Cc1cn(Cc2cccc(C(F)(F)F)c2)nn1 (stereo not given)	8%	-6%
CC(O)(c1ccc(Cl)cc1)C(c1ccccc1)c1ccccn1 (stereo not given)	i	-6%
CNC(=O)CSc1nnc(-c2ccccc2)n1C	i	8%
COc1cccc(-n2cc(C(=O)NCCc3cccc(C)c3)c3ccccc3c2=O)c1	-15%	-14%
CCCCNC(=O)C1c2ccccc2OCC(=O)N1CC(F)(F)F (stereo not given)	2%	-9%
CCC(C)(C(=O)NC1CCCC1)N(C)C(=O)c1ccccn1 (stereo not given)	i	-9%
COc1ccc(N2CCN(S(=O)(=O)c3ccc4c(c3)C(C(C)C)C(=O)N4)CC2)cc1 (stereo not given)	-20%	-7%
COc1ccc(N(CC(=O)NC2CC3CCC2C3)S(=O)(=O)c2ccccc2)cc1OC (stereo not given)	i	-21%
COc1cc(-n2nnnc2SCC(=O)N2CCN(c3ccc(F)cc3)CC2)c(OC)cc1Cl	-22%	-11%
COc1cc(Cl)ccc1OCc1cc(C(=O)N(C)CCc2c(C)n[nH]c2C)no1	-10%	-22%
Cc1cccc(NC(=O)CCC(=O)N/N=C/c2cc([N+](=O)[O-])ccc2O)c1	i	-10%
COc1cccc(NS(=O)(=O)c2ccc3[nH]cc(C(=O)N(C)C4CCCCC4)c(=O)c3c2)c1	-2%	-6%
COc1ccc(S(=O)(=O)Cc2ccc(C(=O)NCCCN3CCc4ccccc4C3)o2)cc1	-11%	-2%
O=C(CSCc1ccc(Br)cc1)NCc1ccccn1	-8%	-7%
CC(CN1CCCCC1)OC(=O)COc1ccc(Cl)cc1 (stereo not given)	-3%	-25%
Cc1ccc2nc(NC(=O)CSc3[nH]c(=O)ncc3C)sc2c1	-4%	-9%
COc1cccc(NC(=S)N2CCN(S(=O)(=O)c3ccc(F)cc3)CC2)c1	?	-22%
CC(NC(=O)c1ccc2ccccc2n1)c1ccc(S(N)(=O)=O)cc1 (stereo not given)	-5%	-9%
O=C(CSc1ccc(-c2ccco2)nn1)NCc1ccc(Cl)cc1	i	-8%
Cc1ccc(NC(=S)NC2CCN(Cc3ccccc3)CC2)cc1C	-21%	?
O=C(CCc1ccc(F)c(F)c1)NC1CCCN(Cc2ccc(Cl)cc2)C1 (stereo not given)	-3%	-8%
CS(=O)(=O)c1ccc(NC(=O)CCCc2nc3ccccc3c(=O)[nH]2)cc1	i	-13%
O=C(CC(=O)NN=C1CCCCCC1)NCc1cccnc1	5%	0%
COc1ccc(CN(CC(=O)NC2CCCC2)C(=O)CCC(=O)Nc2cc(C)on2)cc1	-10%	-6%

In the list so far, twelve contain an aryl thioether with sulfur outside any ring:
canonical_smiles	Vaccinia mCherry	Vaccinia Venus
COc1cccc2c(SCC(=O)N/N=C/c3ccc(O)cc3O)cc(C)nc12	-18%	-3%
CC(=O)Nc1ccc(NC(=O)C(C)Sc2nc3nc(C)cc(C)n3n2)cc1 (stereo not given)	i	-6%
O=C(CSc1nc2c(cnn2-c2ccccc2)c(=O)[nH]1)N1CCOCC1	-15%	-11%
CN(C)CCCn1c(SCC(=O)N2c3ccccc3Sc3ccccc32)nc2ccccc2c1=O	?	14µM*
COC(=O)c1cc(C(=O)OC)cc(N2C(=O)CC(Sc3nc(C)cc(C)n3)C2=O)c1 (stereo not given)	.	-4%
COc1ccc2sc(-c3ccc(SC)cc3)c(/C=C/c3ccc(OC)c(OC)c3)c2c1	-12%	-11%
Cc1cc(NC(=O)CSc2ncnc3sccc23)no1	i	-17%
CCn1c(CCNC(=O)c2ccc(OC)cc2)nnc1SCC(=O)Nc1ccccc1F	-10%	5%
CNC(=O)CSc1nnc(-c2ccccc2)n1C	i	8%
COc1cc(-n2nnnc2SCC(=O)N2CCN(c3ccc(F)cc3)CC2)c(OC)cc1Cl	-22%	-11%
Cc1ccc2nc(NC(=O)CSc3[nH]c(=O)ncc3C)sc2c1	-4%	-9%
O=C(CSc1ccc(-c2ccco2)nn1)NCc1ccc(Cl)cc1	i	-8%
